# Polio RdRp inh: poliovirus RNA polymerase inhibition. poliovirus polymerase elongation, fluorescence polarization; stronger effect = lower value. % elongation, % (compound at 16.7 µg/mL). 0.66% of 150,000 active. AID 588519; in the data active = % elongation below about 90%; also: some results filed as inactive read as strong as hits
# Target sequence (P03300 1749-2209 limits assumed): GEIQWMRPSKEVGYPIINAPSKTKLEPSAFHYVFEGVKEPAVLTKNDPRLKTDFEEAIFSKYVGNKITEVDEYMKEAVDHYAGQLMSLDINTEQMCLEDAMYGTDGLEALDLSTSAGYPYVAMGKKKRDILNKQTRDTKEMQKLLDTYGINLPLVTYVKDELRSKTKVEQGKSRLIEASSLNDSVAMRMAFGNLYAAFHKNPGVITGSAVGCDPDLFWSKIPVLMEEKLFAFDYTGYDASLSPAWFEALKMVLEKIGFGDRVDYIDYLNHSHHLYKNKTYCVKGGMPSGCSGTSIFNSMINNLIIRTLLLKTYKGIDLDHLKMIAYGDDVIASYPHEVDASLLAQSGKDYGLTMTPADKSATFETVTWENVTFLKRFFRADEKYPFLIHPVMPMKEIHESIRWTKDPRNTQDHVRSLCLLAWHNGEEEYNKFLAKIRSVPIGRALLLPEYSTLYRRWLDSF
# Mtb MbtI inh: blocks the Mycobacterium tuberculosis siderophore enzyme MbtI. 0.89% of 100,000 active. purified MbtI enzyme, fluorescence intensity read-out. P9WFX0. AID 493033. inhibition, %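 (about 17 µg/mL by stock and volumes)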;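 active = above 50% in both replicates, above 80% if mildly self-fluorescent; inactive = the rest, strongly fluorescent compounds included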;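 also: 0% = mean of negative and 100% = mean of positive controls; one replicate is shown; some compounds called inactive have numbers as strong as hits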
# Target sequence (P9WFX0 whole entry, looked up): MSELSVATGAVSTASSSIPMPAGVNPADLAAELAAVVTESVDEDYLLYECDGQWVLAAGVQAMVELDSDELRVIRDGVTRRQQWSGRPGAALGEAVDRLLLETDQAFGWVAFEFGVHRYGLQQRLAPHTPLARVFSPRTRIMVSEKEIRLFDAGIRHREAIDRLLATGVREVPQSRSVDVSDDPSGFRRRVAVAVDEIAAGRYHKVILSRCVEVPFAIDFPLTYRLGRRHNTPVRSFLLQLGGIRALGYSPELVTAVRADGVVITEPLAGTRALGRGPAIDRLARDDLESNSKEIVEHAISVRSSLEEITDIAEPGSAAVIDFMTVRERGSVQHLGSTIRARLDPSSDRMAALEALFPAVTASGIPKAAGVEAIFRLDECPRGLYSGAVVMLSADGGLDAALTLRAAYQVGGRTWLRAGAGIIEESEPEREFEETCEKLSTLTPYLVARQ
# MenB inh: inhibitors of Mycobacterium tuberculosis MenB enzyme | P9WNP5 | MenB enzyme assay, absorbance read-out; some hits fall short of the stated cut | inhibition, %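 (about 12 µg/mL by stock and volumes)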 | 0.43% of 100,000 active;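 active = mean of two replicates above 30%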;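 also: 0% = no compound and 100% = wells with inactive enzyme; the first replicate is given; strong numbers were not always called active; inactives centre near -10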
# Polio RdRp inh intensity: second read-out of Polio RdRp inh, no call of its own (marks repeat the call); % elongation; measured here: total intensity read-out; formula for this scale not given here;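 total fluorescence in place of polarization; lower means less elongation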
# * marks the source's active call; other numbers are inactive results; . = not tested or not shown; & = joins results of further samples.
SMILES,Polio RdRp inh,Polio RdRp inh intensity,Mtb MbtI inh,MenB inh
OC(COCc1ccccc1)CN1CCc2ccccc2C1 (configuration not stated),100,103,-5,.
O=c1[nH]cnc2sc3c(c12)CCSC3,98,110,-4,-15
O=C(Nc1cccc2cnccc12)c1cc(Cl)cc(Cl)c1,101,99,-11,.
O=C(O)C1CCCN1C(=O)/C=C/c1ccc(F)cc1 (configuration not stated),105,105,-2,.
Cc1cc(NC(=O)Cn2c(NCc3ccccc3)nc3ccccc32)no1,102,102,-1,-1
O=C(c1ccccc1F)N(Cc1cccs1)c1ccc(O)cc1,100,103,-4,-21
CC(C)=NNC(=O)C1COc2ccccc2O1 (configuration not stated),103,103,13,5
N#CCN1CCN(Cc2ccccc2)CC1,109,115,-21,1
C=CCNC(=O)CC12CC3CC(CC(Br)(C3)C1)C2,99,95,-6,.
Cc1ccnc(NC(c2ccc(Cl)cc2)c2c(C)[nH]c3ccccc23)c1 (configuration not stated),100,97,27,-39
COc1ccc(C(CC(=O)O)NC(=O)Cc2ccccc2)cc1 (configuration not stated),100,103,.,-3
CCn1c(=O)cc(SCC(=O)NCCCN2CCOCC2)c2ccccc21,98,99,19,-2
Cc1ccc2nc(Nc3ccc(F)cc3C)c3nncn3c2c1,101,104,5,-3
Cc1ccc(C(=O)C2C(=O)C=C(c3ccc(C)cc3)OC2=O)cc1 (configuration not stated),101,105,.,-3
O=C1NC2(C(=O)O)CCC(=O)N2c2ccccc21 (configuration not stated),104,104,1,-20
COc1ccc(-c2cc(C(F)(F)F)nc(SCC(=O)N3CCc4ccccc43)n2)cc1OC,102,100,34,-3
Cc1n[nH]c(=S)n1/N=C\c1ccco1,90*,95*,36,8
Cc1ccsc1C(N)=S,103,112,6,-20
O=C(Cn1ccc(C(F)(F)F)n1)NC1CCCc2ccccc21 (configuration not stated),104,104,-27,-7
CN(CCNC(=O)c1cc2c(s1)CS(=O)(=O)C2)C1CCCCC1,102,102,7,2
COC(=O)c1ccc(S(=O)(=O)N2CCN(c3ccc(C(F)(F)F)cn3)CC2)n1C,104,106,-11,-7
CN(C(=O)c1cnn2c(C(F)F)cc(-c3ccccc3)nc12)C1CCCCC1,104,104,17,-13
CCSc1nc2sc3c(c2c(=O)n1-c1ccc(OC)cc1)CC(C(C)C)OC3 (configuration not stated),102,104,-1,5
NC(=O)c1cn(-c2ccccc2)nc1N,100,101,102,-14
FC(F)(F)c1ccnc(Oc2ccc(C3=NCCS3)cc2)c1,102,103,-2,-8
CCN(CC)c1ccc(NC(=O)c2ccc(OC)c(OC)c2)cc1,.,.,9,-8
COc1ccc(C(=O)c2ccc(F)cc2)cc1,102,94,-2,-21
COC(=O)c1ccc(CSc2nnc(CNC(=O)c3ccco3)o2)o1,100,102,-6,-26
Cc1cc(C)nc(N2C(=O)CC(C(=O)O)NC2=NCCc2c[nH]c3ccccc23)n1 (configuration not stated),100,104,-5,4
COc1ccc(N=c2oc3ccc(OC)cc3cc2C(N)=O)cc1,100,102,1,-5
Cc1ccc(NS(=O)(=O)c2ccc(N3C(=O)c4ccccc4C3=O)cc2)cc1C,107,109,.,-7
O=C(CSc1ccncc1)N1CCN(S(=O)(=O)c2ccc3c(c2)CCC3)CC1,103,107,15,-22
CC1=C(C(=O)Nc2cccc(C(=O)N3CCN(c4ccc(F)cc4)CC3)c2)SCCO1,103,103,13,-17
CC(C)(C)C1CCc2onc(C(=O)NCc3ccc(F)cc3)c2C1 (configuration not stated),102,103,3,-20
Cc1ccc(C(C(=O)NCC2CCCO2)N(Cc2ccc3c(c2)OCO3)C(=O)c2ccc(-c3ccccc3)[nH]2)o1 (configuration not stated),104,105,21,-50
CC(C)(C)c1cc(N)n2nc(C(C)(C)C)cc2n1,102,102,-44,-33
CCCCN1C(=O)C(O)(CC(=O)c2ccc(C)cc2)c2ccccc21 (configuration not stated),101,102,1,8
N#Cc1c(NC(=O)CN2CCCCC2)sc2c1CCC2,100,104,-3,-5
Cc1cccc(-n2[nH]c(=S)sc2=S)c1,108,112,49,-30
Cc1cc[n+](CC2OCc3ccccc3CO2)cc1,103,98,-1,-19

# Quoted from the listing:
# NC(=O)c1cn(-c2ccccc2)nc1N in Mtb MbtI inh reads 102
# CC(C)(C)C1CCc2onc(C(=O)NCc3ccc(F)cc3)c2C1 (configuration not stated) in Polio RdRp inh intensity reads 103
# CC1=C(C(=O)Nc2cccc(C(=O)N3CCN(c4ccc(F)cc4)CC3)c2)SCCO1 in MenB inh reads -17
# FC(F)(F)c1ccnc(Oc2ccc(C3=NCCS3)cc2)c1 in Mtb MbtI inh reads -2
# CCSc1nc2sc3c(c2c(=O)n1-c1ccc(OC)cc1)CC(C(C)C)OC3 (configuration not stated) in Polio RdRp inh reads 102

# A section from further up, for reference:
SMILES,Polio RdRp inh,Polio RdRp inh intensity,Mtb MbtI inh,MenB inh
N#Cc1c(NC(=O)CN2CCCCC2)sc2c1CCC2,100,104,-3,-5
Cc1cccc(-n2[nH]c(=S)sc2=S)c1,108,112,49,-30
Cc1cc[n+](CC2OCc3ccccc3CO2)cc1,103,98,-1,-19

# The listing picks up; the 3 compounds before the break are reprinted first.
SMILES,Polio RdRp inh,Polio RdRp inh intensity,Mtb MbtI inh,MenB inh
N#Cc1c(NC(=O)CN2CCCCC2)sc2c1CCC2,100,104,-3,-5
Cc1cccc(-n2[nH]c(=S)sc2=S)c1,108,112,49,-30
Cc1cc[n+](CC2OCc3ccccc3CO2)cc1,103,98,-1,-19
Cc1ccccc1OCCn1cc(/C(N)=N/O)c2ccccc21,104,109,-1,6
N#Cc1cc2c(nc1SCC(=O)NCc1ccc(F)cc1)C1CCN2CC1,101,102,2,-24
CCCNc1nc(-c2ccccc2)cs1,101,101,64,8
CN(Cc1cnc2nc(N)nc(N)c2n1)c1ccc(C(=O)N[C@@H](CCC(=O)O)C(=O)O)cc1,102,101,2,-5
O=C(NCc1ccc2c(c1)CCO2)c1ccc2nsnc2c1,104,107,-8,-8
O=C(Nc1ncccc1O)c1c(O)c2cccc3c2n(c1=O)CC3,111,95,.,-46
COC(C(=O)NCc1ccc(Cl)cc1Cl)c1ccccc1 (configuration not stated),98,96,.,-1
N#Cc1c(N2CCOCC2)nn2cc(C(=O)c3ccccc3O)cnc12,104,109,-15,-43
N#Cc1ccccc1CCl,101,96,0,.
Cc1cs/c(=N\C(=S)Nc2ccccc2)n1C,102,98,-3,-58
O=C(O)CN1C(=O)/C(=c2\sc3nc4ccccc4n3c2=O)c2ccccc21,103,102,-15,-15
COC(=O)C1(C(C)C)NC(c2ccccc2OC)C2C(=O)N(C)C(=O)C21 (configuration not stated),102,102,-7,27*
Cc1nn(-c2ccccc2)nc1CNC(=O)COc1ccccc1,101,99,0,-5
c1ccc(CCn2nnnc2CN2CCCc3ccccc32)cc1,103,100,-7,-26
CN(C)CCOC(=O)c1ccccc1O,104,96,-215,.
O=C(COC(=O)CN1C(=O)CCOc2ccccc21)Nc1ccc(F)cc1,104,107,1,-1
O=C(Cc1noc2ccccc12)NC1CCCCCC1,113,124,-10,-26
COCCN=c1scc(-c2cccs2)n1/N=C(\C)c1ccco1,152,162,53,-63
CCn1c(C)nnc1SCC(=O)NC1CCCCCC1,105,99,-3,-33
CCOC(=O)c1oc2ccccc2c1CSc1nc2cc(S(=O)(=O)N(C)C)ccc2o1,100,94,5,-47
Nc1nc(NC(=O)c2ccco2)nn1-c1ccccc1,99,105,.,-15
C=CCn1c(SCC(=O)N2CCOCC2)nnc1-c1cc(Br)ccc1O,99,101,1,-11
Cn1nc(C(=O)NCc2ccc(F)cc2)c2c1-c1ccccc1OC2,100,102,93,-12
COc1ccc(C/C(N)=N/O)cc1OC,101,103,1,21*
COc1ccc(OC)c(NS(=O)(=O)c2ccc(NC(=O)c3ccco3)cc2)c1,101,103,-8,-4
O=S(=O)(NCCc1ccccc1)c1ccccc1,102,110,.,11
c1ccc(-c2noc3c2CNCC3)cc1,102,102,-1,10
Cc1cccc(CCNS(=O)(=O)c2cc3c(cc2C)NC(=O)CO3)c1,100,102,12,-26
COc1cc2sc(C)nc2c2ccccc12,102,97,7,-25
CC1CC(=O)C2=C(C1)Nc1ccccc1NC2c1ccccc1 (configuration not stated),101,103,-25,-1
Cc1ccc(CNC(=O)C2CCN(S(C)(=O)=O)CC2)cc1,99,104,-7,-9
O=C(O)c1ccccc1N=Nc1c(O)[nH]c2ccccc12,113,110,35,-241
CCN(Cc1ccccc1)C(=O)CSc1nc2ccccc2s1,98,96,5,.
O=C(Cn1c(=O)n(CCC(=O)NC2CCCC2)c(=O)c2ccccc21)NCc1ccco1,99,102,10,-9
O=C(C1=NNCC1c1ccccc1)c1ccccc1 (configuration not stated),96,102,-4,17
Nc1ccc(O)c(C(=O)O)c1,99,99,-11,-4
O=S(=O)(CCc1ccncc1)c1ccccc1,104,111,.,-16
CC1CCc2c(sc(NC(=O)COC(=O)Cn3cnc4c3c(=O)n(C)c(=O)n4C)c2C#N)C1 (configuration not stated),108,113,5,-12
CC(=O)NCCOc1ccc(C)c(C)c1,104,104,0,.
CCOC(=O)C1CN(S(=O)(=O)c2ccccc2)CCN1S(=O)(=O)c1ccccc1 (configuration not stated),101,102,-27,1
Cc1ccc2[nH]c(=O)c(CN(CC3COCCO3)C(=O)Nc3ccccc3F)cc2c1 (configuration not stated),102,103,5,-16
O=C(Nc1ccc(Br)cc1)c1ccc2nsnc2c1,101,102,10,-11
FC(F)(F)c1cccnc1N1CCNC1=S,99,103,-2,0
C/C(N)=C(/C#N)C(=O)CSc1nnc(-c2ccccc2)o1,108,118,-2,-4
Cc1ccccc1N1C(=O)c2cc(S(N)(=O)=O)c(Cl)cc2NC1C (configuration not stated),101&100,103&102,-19&-30,-3&-5
CSc1cccc(NC(=O)c2noc3c2CSc2ccccc2-3)c1,107,108,9,-59
O=C(NC1CCCCC1)C(c1ccco1)N(Cc1ccccc1)C(=O)Cn1nnc2ccccc21 (configuration not stated),103,102,-14,-19
CC1SC(=Nc2ccc(C(=O)O)cc2)NC1=O (configuration not stated),101,102,17,8
S=c1nc[nH]c2ccsc12,95,91,61,-18
COC(=O)CSc1nc2ccccc2[nH]1,105,112,-13,5
COc1ccc(-c2n[nH]c(=O)[nH]2)cc1,102,97,11,5
CCOc1cc(C(=O)NCc2ccc3[nH]c(C)cc3c2)cc(OCC)c1OCC,103,106,-11,-23
COc1ccc(CNC(=O)C(C)On2nnc3ccccc32)cc1 (configuration not stated),105,109,-5,-2
CSc1ccc(S(=O)(=O)N2CCOCC2)cc1,103,98,-8,-19
O=C(O)CSc1ccc2c3c(cccc13)CC2,99,98,1,.
C=CCSc1nnc(NC(=O)Cc2coc3c(C)c(C)ccc23)s1,104,99,-1,-37
O=C1SCCC1NS(=O)(=O)c1ccccc1 (configuration not stated),103,107,-5,-1
CC1(C)CC(CC(=O)O)(c2ccc(F)cc2)CCO1 (configuration not stated),104,101,1,-14
CSc1nc(COc2ccc(C(C)(C)C)cc2)nc(-n2cccc2)c1C#N,110,118,-1,4
NC(=O)CSc1nc2ccccc2s1,100,105,82*,-38

# Rewritten with tabs: 6 of the compounds above
Molecule	Polio RdRp inh	Polio RdRp inh intensity	Mtb MbtI inh	MenB inh
COc1ccc(CNC(=O)C(C)On2nnc3ccccc32)cc1 (configuration not stated)	105	109	-5	-2
CSc1ccc(S(=O)(=O)N2CCOCC2)cc1	103	98	-8	-19
O=C(O)CSc1ccc2c3c(cccc13)CC2	99	98	1	.
C=CCSc1nnc(NC(=O)Cc2coc3c(C)c(C)ccc23)s1	104	99	-1	-37
O=C1SCCC1NS(=O)(=O)c1ccccc1 (configuration not stated)	103	107	-5	-1
CC1(C)CC(CC(=O)O)(c2ccc(F)cc2)CCO1 (configuration not stated)	104	101	1	-14

# (next part)
SMILES,Polio RdRp inh,Polio RdRp inh intensity,Mtb MbtI inh,MenB inh
c1ccc2oc(-c3nn4c(Cn5nnc6ccccc65)nnc4s3)cc2c1,100,101,38,10
CCOC(=O)N1CCN(C(=O)C2CC(=O)N(c3ccccc3)C2)CC1 (configuration not stated),99,101,-7,-5
O=C(COC(=O)c1ccc2c(=O)n3c(nc2c1)CCCCC3)c1ccc(S(=O)(=O)N2CCCCC2)cc1,103,105,1,5
N/C(=N\O)c1ccccn1,104,103,-4,3
Cc1sc(-n2cccc2)c(C(=O)NC2CCCCCC2)c1C,.,.,0,-3
CN1CCCC(OC(=O)c2cccnc2Cl)C1 (configuration not stated),100,99,-10,.
Cc1cc(NC(=O)Cn2c(COc3ccc4ccccc4c3)nc3ccccc32)no1,103,110,24,-31
CC(C)(C)C(=O)NC1CCN(CC(=O)Nc2ccccc2)CC1,100,103,-1,-16
Cc1ccc(Oc2ccccc2NC(=O)CN2CSCC2=O)cc1,107,106,2,-11
CCc1ccc(C2=CC(c3cccc(Br)c3)C(C#N)C(=O)N2)cc1 (configuration not stated),101,106,.,2
c1ccc(-c2nnc(-c3cccnc3)o2)cc1,100,98,8,-13
CSc1ncc2c(=O)n(C(C)C)ccc2n1,102,101,51,2
OCC1OC(Nc2ccccn2)C(O)C(O)C1O (configuration not stated),101,102,.,-6
CCCC(CCC)C(=O)Nc1c2c(nc3c1CCC3)CCCC2,103,102,-1,-1
Cc1ccc(N2CCN(/N=C/C3=C(N4CCOCC4)C(=C\c4ccccc4)/CC3)CC2)cc1,102,98,-10,-22
O=C(Cc1ccccc1)OCn1nnc2ccccc2c1=O,102,107,21,-19
O=C1CC(c2c[nH]c3ccccc23)C(=O)N1c1ccccc1 (configuration not stated),104,109,-3,-11
CC1=NOC(=O)/C1=C/c1ccc(-c2ccccc2)o1,105,108,40,-74
COc1ccccc1C(=O)Nn1cnc2ccccc2c1=O,101,101,6,2

# Screening results: PubChem BioAssay, ICCB-Longwood Screening Facility, Harvard Medical School
